# Screens (PubChem)
# ClpP mod = qHTS Assay for Activators of ClpP. ATP-dependent Clp protease proteolytic subunit (Bacillus subtilis (strain 168)), P80244. purified B. subtilis ClpP, FRET peptide cleavage, 20 min. Potency, µM (titrated, usually from 57.5 µM), for inactives: top-dose activity change, negative = active. 1.9% of 340,000 active. AID 651965, 2013; active = well fitted falling curve with a large enough effect; inconclusive = small, poorly fitted or top-dose-only effect; inactive = no such curve, though single readings can be large or run the other way; also: potency is read from the fitted curve at half-maximal effect; the source files actives as falling curves though it sought activators and does not explain the sign; nearly all actives have a fitted effect of over 65% in size; many hits overshoot -100%
# Target sequence (P80244 whole entry, looked up): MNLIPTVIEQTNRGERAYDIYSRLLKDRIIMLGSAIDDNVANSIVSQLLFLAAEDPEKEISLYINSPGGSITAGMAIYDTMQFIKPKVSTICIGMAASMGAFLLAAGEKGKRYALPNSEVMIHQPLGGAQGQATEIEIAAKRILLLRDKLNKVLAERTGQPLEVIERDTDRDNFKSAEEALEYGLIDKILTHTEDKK
#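 Buffer: 100 mM Tris/HCl pH8, 100 mM KCl, 0.05% low protease BSA, 2.5% glycerol, 0.01% Tween-20. ClpP 10 microg/mL final; 20 min RT; delta FRET normalized to ADEP and DMSO controls.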
# D2 PAM = positive allosteric modulators of human D2 dopamine receptor. potentiation, % (no concentration beside the values). AID 624464. P14416. 0.23% of 360,000 active. DiscoveRx D2 beta-arrestin cells, luminescence, 90 min; 100% = 57 uM dopamine signal; active = potentiation of 50% or more; inconclusive = 30% to 50%; inactive = 30% or less;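 also: compound concentration not given in the record; tested on top of an EC20 dose of dopamine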
# Target sequence (P14416 whole entry, looked up): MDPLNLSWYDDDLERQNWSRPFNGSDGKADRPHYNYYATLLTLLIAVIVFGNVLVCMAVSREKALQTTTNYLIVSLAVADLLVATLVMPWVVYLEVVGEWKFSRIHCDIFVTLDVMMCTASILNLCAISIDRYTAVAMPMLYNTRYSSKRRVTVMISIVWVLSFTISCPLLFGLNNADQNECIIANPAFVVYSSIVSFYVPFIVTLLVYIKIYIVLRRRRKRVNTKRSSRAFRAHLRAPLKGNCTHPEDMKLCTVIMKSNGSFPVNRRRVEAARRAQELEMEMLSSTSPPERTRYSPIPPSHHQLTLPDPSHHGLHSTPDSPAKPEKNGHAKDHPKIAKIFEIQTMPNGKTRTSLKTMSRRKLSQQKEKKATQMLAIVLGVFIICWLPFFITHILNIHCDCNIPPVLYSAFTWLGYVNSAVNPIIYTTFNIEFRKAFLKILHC
#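 PathHunter D2 cells, attached overnight at 37 deg C, received compound in DMSO plus dopamine at EC20 (50 nM final) for 90 min at 37 deg C. Beta-arrestin recruitment was read as luminescence after 1 h with detection reagent at ambient temperature.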
# Menin MLL FP FL = inhibitors of human menin-MLL interaction, wild-type MLL peptide. Fluorescence polarization, fluorescein-MLL peptide displacement from menin. FP activity change, % at 61.4 µM. AID 1766. 290,000 tested, under 10 active; inconclusive = falling polarisation curve, or a change in total fluorescence; inactive = total fluorescence flat and polarisation flat or rising; no compound was filed as active; the % refers to the polarisation; negative = inhibition;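 also: % of control where 0% means no effect; inhibitors lower the polarisation; unlabelled MLL peptide was the positive control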
# gsp antagonist = gsp mutant antagonism. Potency, µM (doses to about 76.9 µM), for inactives: at the highest dose activity change, negative = inhibition, hits mostly inhibitors. AID 624288. gsp-mutant cells, cAMP HTRF, 30 min; control for the full effect not named in the record. 0.4% of 340,000 active; active = falling curve of any shape with a large fitted effect; inconclusive = falling curve, mostly with a smaller effect; inactive = flat or rising curve; cell line not stated here;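 also: intracellular cAMP measured with PDE inhibitor Ro 20-1724 present during compound exposure; potency is read from the fitted curve at half-maximal effect; % is scaled to controls: 0 for no effect and ±100 for the full control effect; nearly all actives have a fitted effect of over 65% in size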
#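 Cells in G418 medium, seeded 16-24 h, 37C; buffer exchange to DPBS + 1 mM CaCl2, 0.5 mM MgCl2, 0.05% BSA; cpds in DMSO + […] (300 uM stock), 30 min 37C; HTRF cAMP detection.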
# Sfp inh = inhibitors of Bacillus subtilis Sfp phosphopantetheinyl transferase; Q9F4F7; Biochemical Sfp PPTase activity, qHTS; Potency, µM, for inactives: max response, negative = inhibition, most hits filed as inhibitors; 3.5% of 310,000 active; AID 1490; active = well fitted inhibition curve with a large enough effect; inconclusive = small, poorly fitted or top-dose-only effect, or another doubt; inactive = no such curve, though single readings can be large or run the other way;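 also: the enzyme is Sfp with the accession as filed and its product quenches rhodamine fluorescence; potency is read from the fitted curve at half-maximal effect; 0% = enzyme reaction without inhibitor and -100% = no enzyme wells; top concentration of the series not given in the record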
#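 Sfp 15 nM + cpd, 15 min RT; start w/ rhodamine-CoA 5 uM, BHQ-2-YbbR 12.5 uM (final); 50 mM Hepes pH 7.6, 10 mM MgCl2, 0.01% NP-40, 0.01% BSA; read 525/598 nm at 0 and 30 min.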
# TRPV1 PAM = enhances activation of the human vanilloid receptor TRPV1 | 0.02% of 320,000 active | TRPV1-expressing cells, Fluo-8 calcium influx, capsaicin EC20 potentiation; host cell line not named in the record; control for the full effect not named in the record | AID 540277 | potentiation, % at 8.33 µM | Q8NER1; active means potentiation above 80%; inconclusive means 30% to 80%; inactive means below 30%; also: 0% is about no effect
#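 TRPV1-expressing cells were cultured overnight at 35.5C and loaded with Fluo-8 calcium dye for 40 to 90 min at room temperature. After a 10 s baseline, compound was added and calcium influx was read kinetically for 3 min (ex 480/em 520 nm).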
# gsp ag = agonists of gsp mutant (McCune-Albright syndrome); gsp mutant cells, cAMP HTRF, 30 min; control for the full effect not named in the record; Potency, µM (titrated, usually from 76.9 µM), without a hit: at the top dose activation (cAMP increase), actives largely listed as activators; 0.13% of 340,000 active; AID 624287; active = well fitted activation curve with a large enough effect; inconclusive = small, poorly fitted or top-dose-only effect, or another doubt; inactive = no such curve, though single readings can be large or run the other way; cell line not stated here;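 also: phosphodiesterase inhibitor Ro 20-1724 added with compounds to block cAMP breakdown; potency is read from the fitted curve at half-maximal effect; nearly all actives have a fitted effect of over 60% in size; about a fifth of the inactives were tested at one dose only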
#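 Cells in DMEM/10% FBS with G418 were pretreated with compounds in DMSO plus […] (300 uM stock) for 30 min at 37C. cAMP was measured by HTRF (cAMP-d2 plus anti-cAMP antibody-K) after 30 min at room temperature.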
# The depositor's hits bear a star; u = inconclusive; x = no result given; & = joins results of further samples; [ ] = dose if it differs, or a comment.
SMILES,ClpP mod,D2 PAM,Menin MLL FP FL,gsp antagonist,Sfp inh,TRPV1 PAM,gsp ag
CCCOc1ccc(CNC(=O)c2ccc3c(c2)N(CC)CCS3)cc1,4.1%,-10,-1.2,-14%,7%,-3,33%
O=c1[nH]c(=S)[nH]c2c1CN(Cc1ccc(F)cc1)CC2,-0.8%,-2,-1.6,7%,-25%,-11,5%
Cc1c(OCC(=O)N2CCC(C(=O)O)CC2)ccc2c1oc(=O)c1ccccc12,4.8%,-28,1.0,6%,4%,u,x
Cc1cc(C)n2nc(SCC(=O)NC(=O)c3ccc(OC(F)F)cc3)nc2n1,7.4%,-2,x,-4%,x,x,16%
CC(=O)Nc1cccc(-c2csc(N)n2)c1,-2.4%,-7,0.3,-14%,-2%,0,-72%[inhibitor]
O=C1CC(c2ccccc2)CC(O)=C1C=NCc1ccco1 (stereo unspecified),0.0%,-10,7.0,14%,-10%,25,-2%
O=c1c2[nH]c3ccc(F)cc3c2ncn1CCN1CCOCC1,-3.4%,28,1.7,9%,25%,x,2%
O=C1CCCC/C1=C/Nc1ccc(C(=O)O)cc1,-7.6%,2,-0.7,3%,2%,-20,-58%[inhibitor]
CCOc1cc(/C=C/C(=O)OCC(=O)NCC2CCCO2)cc(Cl)c1OC (stereo unspecified),x,-2,x,-4%,x,x,-30%
COc1ccc(OC)c(/C=C2\Oc3cc(OCC(=O)N4CCC(C(=O)O)CC4)ccc3C2=O)c1,-0.9%,4,u,-2%,16µM*,5,u
Cn1c(=O)c2c(ncn2CCC(=O)N/N=C/c2cccnc2)n(C)c1=O,1.6%,-7,-1.7,1%,3%,-11,42%[15.4 µM]
Cc1[nH]c2ccccc2c1C(=O)C(=O)NCc1ccncc1,0.4%,3,x,6%,x,x,5%
COc1ccc(NC(=O)c2cc(S(=O)(=O)N3CCCCC3)ccc2N2CCCCC2)cn1,-1.1%,-10,-7.8,-12%,-18%,10,18%
CCCCCCCC[n+]1cccc2c3ccccc3ccc21,3.6%,7,-1.8,-12%,1%,-11,35%
COc1cccc(-c2c(-c3cc(OC)cc(OC)c3)n(C)c3ccc(-c4cccc5[nH]ccc45)cc23)c1,4.0%,6,x,3%,x,-11,0%
COc1ccc(CN2C(=O)CCC2(C)C(=O)NC2CCCCCC2)cc1 (stereo unspecified),3.0%,-3,0.3,8%,17%,-1,-41%[inhibitor]
CCC(c1nnnn1Cc1cccs1)N1CCN(C2CCCC2)CC1 (stereo unspecified),1.3%,-18,-3.9,26%,-17%,-4,-6%
Cc1sc(NC(=O)c2ccc(=O)n(C)n2)nc1-c1ccccc1,x,-3,0.1,x,-8%,-15,-18%[15.4 µM]
COc1ccc(NC(=O)c2cccc(N3C(=O)c4ccc(C(=O)Nc5ccc(OC)c(O)c5)cc4C3=O)c2)cc1O,2.3%,2,x,-24%,12%,12,-86%[inhibitor]
COc1ccc(/C=C2\SC(=S)N(CC(=O)NCCO)C2=O)cc1,x,-7,-0.6,u,5%,-15,-7%
CCCc1nnc(NC(=O)CCC(=O)NCCc2ccc(Cl)cc2)s1,-1.5%,-11,x,8%,17%,25,20%
CCCCNC(=S)NC(=O)c1ccc([N+](=O)[O-])cc1,1.1%,27,0.0,8%,8%,-4,3%
COc1ccccc1S(=O)(=O)Cc1ccc(C(=O)NCc2ccc(C)cc2)o1,1.7%,-2,-1.1,1%,-3%,-16,17%
O=[N+]([O-])c1ccc(OCCO)nc1,x,0,4.1,2%,15%,-2,9%[15.4 µM]
CCC1CCc2c(sc(NC(C)=O)c2C#N)C1 (stereo unspecified),-2.5%,-3,6.1,10%,5%,0,-45%[inhibitor]
CCCCC(=O)Nc1ccc2c(c1)C(=O)NC2=O,3.9%,-9,-1.3,-3%,-4%,4,u
COc1ccc(C)cc1N(CC(=O)Nc1cccnc1)S(=O)(=O)c1ccccc1,x,-3,0.8,-17%,16%,-20,2%[15.4 µM]
Cc1ccccc1NC(=O)/C(=C\c1cccs1)NC(=O)c1ccco1,-1.4%,-3,0.5,1%,1%,7,u
COc1ccccc1COCC(O)CNCC1(N2CCCCC2)CCCCC1 (stereo unspecified),0.8%,-7,-4.7,17%,-22%,8,2%
Cc1cc2c(nn1)CCC/C2=N\O,18µM*,-5,-0.6,11%,11%,4,-9%
CN(CCCOc1ccccc1Br)Cc1ccccc1,x,-29,0.4,4%,14%,5,-34%[15.4 µM]
CCOc1ccc(NC(=O)Nc2ccc(Cc3ccncc3)cc2)cc1,x,-5,-1.7,-3%,10%,4,-13%
CCOC(=O)c1cc2c(ccn2C)n1CC(=O)N1C(C)CCCC1C (stereo unspecified),-16%,-5,3.2,-19%,13%,-5,5%
CCOC(=O)C(/C=C(\C#N)C(=O)OCC)=C(/N)N1CCN(c2ccccc2)CC1,0.9%,-21,0.8,-3%,2%,-17,-34%[inhibitor]
S=C(NCCCN1CCOCC1)NCCCN1CCOCC1,-2.0%,-6,5.1,3%,7.1µM*,0,12%
CN1CCCC(OC(=O)c2ccccc2F)C1 (stereo unspecified),0.9%,-6,-0.3,15%,18%,9,1%
CNC(=S)NCCC(c1ccccc1)c1ccccc1,x,-15,-0.6,5%,8%,4,7%[15.4 µM]
CCOc1ccc(CCNC(=O)CCC(=O)N2CCSc3ccccc32)cc1OCC,-1.4%,2,-2.1,-2%,8%,12,-24%
Cc1n[nH]c(=S)n1/N=C/c1ccc(OCc2ccc(Cl)cc2Cl)cc1,2.4%,-12,x,9%,u,-1,-2%[15.4 µM]
CC(C)NC(=O)Nc1ccc2c(c1)C(=O)N([C@H](C)CO)C[C@H](C)[C@@H](CN(C)C(=O)NC(C)C)O2,0.9%,-6,x,-4%,x,x,x
Cc1ccc(F)cc1NC(=O)c1ccc2c(c1)OCO2,3.2%,6,-0.2,2%,1%,4,-16%
CNC(=S)Nc1ccc(C)cc1,0.0%,-6,-1.0,14%,4%,2,9%
COC(=O)C1=C(C)N(C)C(C)=C(C(=O)OC)C1c1cccc(Br)c1,-2.8%,7,1.8,-7%,-4%,-6,-9%
COC(=O)c1ccccc1NC(=O)Cn1cc2c(n1)CCC(C)C2 (stereo unspecified),-1.9%,-2,-0.3,-6%,3%,-9,-5%
CCOC(=O)C1CCCN(Cc2nc(N)nc(Nc3ccccc3)n2)C1 (stereo unspecified),-1.2%,-36,1.1,11%,-17%,-8,-45%[inhibitor]
CCOc1ccc(C(C)(O)CN2CCOCC2)cc1 (stereo unspecified),-0.7%,-3,2.8,20%,13%,-5,-20%
Cc1c(N(C(=O)CNC(=O)c2ccccc2)C2(C(=O)NC3CCCCC3)CCCCC2)c(=O)n(-c2ccccc2)n1C,x,1,5.7,5%,6%,14,-16%[15.4 µM]
COc1cccc(C2CC(c3ccc(Cl)cc3Cl)Nc3nc(N)nn32)c1 (stereo unspecified),-3.8%,-21,4.9,5%,7%,16,-26%
CCOC(=O)c1c(C)oc2c(CC(=O)c3ccccc3)c(Cl)c(O)c(O)c12,-2.5%,26,12,-10%,-7%,17,-3%
COc1ccc(-c2csc(Nc3cccc(C)n3)n2)cc1C,-0.3%,-7,6.1,-25%,-16%,26,30%[15.4 µM]
CC(Nc1nc(-c2ccccc2F)nc2ccccc12)c1ccccc1 (stereo unspecified),x,-15,9.1,-7%,14%,17,u
CC1CC(C)CN(C(=S)NC2CCCCC2)C1 (stereo unspecified),-1.6%,-4,4.8,16%,1%,-27,6%
CCCC(=O)Nc1nnc(SCC(=O)NCc2cccs2)s1,0.5%,-2,-0.9,4%,21%,-5,-2%
Cc1ccc(CNC(=O)CCc2c(C)nn(-c3ccc(N4CCOCC4)nn3)c2C)cc1,-1.7%&-0.7%,0,x,2%,-1%,-12,2%
O=C(CC1Sc2ccccc2NC1=O)OCC(=O)N1CCc2ccccc21 (stereo unspecified),-0.4%,2,2.2,-37%,0%,-7,-3%
CCOC(=O)[C@@H]1[C@H]2COc3ccccc3[C@@H]2N2C(=O)N(c3ccccc3)C(=O)[C@]12C,1.1%,-4,-0.6,5%,15%,-21,x
Nc1c(N2CCCCC2)c2ccccc2oc1=O,x,-10,-1.5,1%,4%,-13,3%[15.4 µM]
COCCCNc1nc(-c2ccc(Cl)cc2)nc2ccccc12,x,-5,2.4,u,-13%,-10,-6%
COC(=O)c1cc2ccccc2c(-c2c(OC)c(C(=O)OC)cc3ccccc23)c1OC,25µM*,-37,-0.8,-3%,2%,-7,-2%
COC(=O)c1c(C)nc(C)c(C(=O)OC)c1-c1ccc(OC)c(OC)c1,x,-4,-0.2,5%,20%,2,29%

# Going on with the list:
SMILES,ClpP mod,D2 PAM,Menin MLL FP FL,gsp antagonist,Sfp inh,TRPV1 PAM,gsp ag
CN(C(=O)c1ccc2c(=O)n3c(nc2c1)CCCCC3)c1ccccc1F,-3.0%,-8,0.2,0%,8%,-11,-30%
NS(=O)(=O)c1ccc(CCNc2ccccc2[N+](=O)[O-])cc1,x,-12,-0.8,4%,21%,7,26%
CCOc1ccccc1N1CCN(Cc2cccc(OC)c2O)CC1,0.2%,-2,2.7,15%,13%,-12,28%
COc1ccccc1CNC(=O)C1CCC1,1.4%,-17,2.4,12%,9%,5,-12%
Cc1ccc(NC(=O)COc2coc(CN3CCN(c4ccccc4)CC3)cc2=O)cc1,-4.5%,-10,x,6%,x,-1,-4%[15.4 µM]
CC(C)(C)N1CC(C(=O)Nc2ccc(S(=O)(=O)N3CCCCC3)cc2)CC1=O (stereo unspecified),x,-24,x,6%,x,-18,-23%[15.4 µM]
Cc1ccc2nc(-c3ccc(NC(=S)NC4CC(C)(C)NC(C)(C)C4)cc3)sc2c1,x,-12,5.2,x,45µM*,5,10%[15.4 µM]
COc1ccc(NC(=O)c2ccco2)cc1NC(=O)c1cccc(F)c1,x,-8,1.6,1%,11%,4,6%[15.4 µM]
O=C(Nc1ccccn1)C1CCN(C(=O)c2ccc(Cl)cc2)CC1,-0.3%,-7,x,x,x,x,-30%[inhibitor]
